# Source: PubChem
# MT1-MMP promoter: inhibitors of MT1-MMP promoter transcription, cell-based, luciferase reporter, luminescence (AID 618). MT1-MMP promoter luciferase reporter cells, luminescence. calls from a first round at 10 µM; hits with a dose series show EC50 in µM. 87,000 compounds, 0.62% hits;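 active = over half of the reporter light lost at 10 µM or EC50 under 50 µM; inactive = the rest and hits that failed the dose series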;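 also: actives suppress MT1-MMP promoter-driven transcription so potencies describe inhibitors; HT1080 fibrosarcoma cells; overnight exposure; toxic or luciferase-blocking compounds were not removed from the actives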
# An asterisk follows results filed as active; i = inactive. A portion of the library (hit frequency here may not be typical).
SMILES,MT1-MMP promoter
c1ccc(C2[C@H]3CN(CC4CCCCC4)[C@H](c4ccccc4)C34CC2(c2cccnc2)C4)cc1 (stereo partly drawn),i
COC(=O)N1CC=CC1(C)C(=O)NCc1cc(F)cc(C(F)(F)F)c1 (stereo not drawn),i
CC(=O)c1c(C(C)=O)c(C)n(-c2ccc(N)cc2)c1C,i
O=C(c1ccccc1Oc1ccccc1)N1CCN(c2ccc(F)cc2)CC1,i
COc1ccc(Cl)cc1C(=O)NCc1cn(C)nc1C,i
COc1ccc(C(=O)/C=C/Nc2cccc(O)c2)cc1,1.2µM*

# Another view of some results above:
> c1ccc(C2[C@H]3CN(CC4CCCCC4)[C@H](c4ccccc4)C34CC2(c2cccnc2)C4)cc1 (stereo partly drawn)
  MT1-MMP promoter: i

> COC(=O)N1CC=CC1(C)C(=O)NCc1cc(F)cc(C(F)(F)F)c1 (stereo not drawn)
  MT1-MMP promoter: i

> CC(=O)c1c(C(C)=O)c(C)n(-c2ccc(N)cc2)c1C
  MT1-MMP promoter: i
